# Beta cell apopt – blocks beta cell apoptosis | INS-1E cytokine-induced death, ATP luminescence, 48 h; percent of positive-control rescue, neutral wells zero | protection from apoptosis, % (no concentration beside the values) | 300,000 tested, 0.8% active;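 active = all replicates at 75% or more, or half of them and the mean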;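 also: 0% = cytokine-treated negative control wells and 100% = positive control rescue; higher means more ATP so stronger rescue from cytokine killing; wells of about 40 µL received 100 nL stock; the first replicate is given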
# Ecoli rRNA inh – inhibitors of bacterial rRNA selective over humanized ribosomes. 350,000 tested, 1.6% active. E. coli WT GFP vs humanized-ribosome RFP mutants, fluorescence, 24 h; hits give low values; DMSO median 0, no signal -100. GFP signal change (wild-type ribosome), % (no concentration beside the values). AID 720706;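 active = significant combined selectivity score with lowered wild-type GFP, culture density cut under 30%, mutant RFP and density less affected; inactive = any of these conditions unmet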; also: one replicate is shown; some compounds called inactive have numbers as strong as hits
# FGF22 binding – binders of recombinant human FGF22 by thermal shift | SYPRO orange fluorescence; percent of sucrose octasulfate shift, DMSO zero | calls only at 9.99 µM | 340,000 tested, 1.5% active | AID 651658;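 active = melting point raised past a set limit in the mean and every replicate; three in four hits are not shown here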
# Target sequence (Q9HCT0 whole entry, looked up): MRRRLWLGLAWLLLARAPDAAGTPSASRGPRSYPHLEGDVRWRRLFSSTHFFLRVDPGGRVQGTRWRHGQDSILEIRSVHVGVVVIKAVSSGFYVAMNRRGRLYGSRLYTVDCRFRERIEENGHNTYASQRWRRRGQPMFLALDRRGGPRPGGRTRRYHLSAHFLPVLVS
# UCH37 DUB inh – blocks the human deubiquitinase UCH37; purified proteasome/UCH37, Ub-AMC cleavage fluorescence; inhibition, % (concentration not given with the values); 330,000 tested, 0.33% active; AID 588478;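 active = mean of two replicates above 20%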;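 also: 0% = compound-free wells with enzyme and 100% = wells lacking proteasome; stock transfer was 100 nL into about 20 µL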
# Target sequence (Q9Y5K5 whole entry, looked up): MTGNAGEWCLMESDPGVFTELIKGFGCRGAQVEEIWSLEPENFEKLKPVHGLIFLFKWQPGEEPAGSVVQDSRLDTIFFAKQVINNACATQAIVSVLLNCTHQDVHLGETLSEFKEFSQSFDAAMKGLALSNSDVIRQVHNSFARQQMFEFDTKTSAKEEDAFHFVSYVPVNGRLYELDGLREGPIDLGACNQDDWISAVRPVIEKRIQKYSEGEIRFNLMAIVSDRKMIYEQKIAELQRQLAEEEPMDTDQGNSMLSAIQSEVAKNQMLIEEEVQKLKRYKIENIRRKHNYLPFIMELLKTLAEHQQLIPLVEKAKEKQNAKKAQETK
#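 Test system – human UCH37 enzyme supplied as purified proteasome complex · Incubation – 30 min preincubation with enzyme, 25 min cleavage at room temperature · Detection – AMC fluorescence from Ub-AMC cleavage, excitation 355 nm, emission 460 nm · Benchmarks – no-proteasome wells (full inhibition) and compound-free wells (no inhibition)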
# AF4-AF9 inh – MLL-AF4/AF9 protein interaction inhibition | P42568 | AlphaScreen, biotin-AF4 peptide binding to FLAG-AF9 | inhibition, % at 10 µM | 350,000 tested, 0.47% active | AID 651704;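 active = every replicate reaching a set inhibition limit, whatever the replicate mean, cut at about 25% in these data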;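 also: 0% = plate neutral control median and 100% = total signal loss; the record names both 10 and 1 µM as test concentration; the first replicate is given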
# Target sequence (P42568 whole entry, looked up): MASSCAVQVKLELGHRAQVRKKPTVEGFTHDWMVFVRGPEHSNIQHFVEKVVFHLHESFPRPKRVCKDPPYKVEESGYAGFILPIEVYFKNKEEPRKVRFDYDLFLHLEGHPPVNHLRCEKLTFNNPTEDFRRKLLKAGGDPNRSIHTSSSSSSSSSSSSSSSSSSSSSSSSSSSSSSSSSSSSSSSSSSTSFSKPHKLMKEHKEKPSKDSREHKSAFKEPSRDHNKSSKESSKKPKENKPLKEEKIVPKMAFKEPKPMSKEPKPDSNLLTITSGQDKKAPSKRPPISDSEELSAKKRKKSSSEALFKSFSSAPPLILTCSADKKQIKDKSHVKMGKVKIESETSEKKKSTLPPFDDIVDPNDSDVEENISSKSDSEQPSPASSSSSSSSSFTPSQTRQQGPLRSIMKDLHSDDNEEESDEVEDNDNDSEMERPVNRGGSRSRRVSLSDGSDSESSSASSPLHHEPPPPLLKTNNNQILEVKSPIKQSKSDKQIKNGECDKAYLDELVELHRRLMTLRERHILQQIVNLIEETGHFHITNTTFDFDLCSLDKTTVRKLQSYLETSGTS
# T cruzi inh – T. cruzi replication inhibition; T. cruzi beta-gal in NIH3T3, luminescence, 90 h; inhibition, % (concentration not given with the values); 300,000 tested, 1.4% active;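 active = mean inhibition across valid replicates above about 55%, limit read from the data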;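 also: signal also drops with host cell toxicity which is not excluded here; 0% = plate median of DMSO wells and 100% = zero luminescence signal; higher percent means less beta-gal luminescence so fewer parasites; stock transfer was 50 nL into about 50 µL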
# A1 inh – inhibitors of the anti-apoptotic protein A1, read as caspase activation; MEF A1-2A-BIM cells, Caspase-Glo 3/7 luminescence, 3 h; percent of clofoctol response, vehicle zero; caspase activation, % (concentration not given with the values); 330,000 tested, 0.066% active; AID 2462;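 active = over half of replicate activation scores above 10%, or exactly half above 10 with the replicate mean above 10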;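 also: wells of about 30 µL received 50 nL stock; many hits fall short of the cut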
# E coli growth – inhibitors of Escherichia coli growth | OD600, 23 h; hits give low values | OD600 absorbance (concentration not given with the values) | 330,000 tested, 0.21% active;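 active = OD600 absorbance below the run mean of sample wells minus 3.6 SD, in any replicate, cut at about 0.56 in these data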;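 also: stock transfer was 300 nL into about 60 µL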
# Ecoli rRNA inh OD600 – second read-out of Ecoli rRNA inh, no call of its own (marks repeat the call); OD600 change, %; measured here: OD600 growth;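 optical density of the mix in the first replicate; 0 = DMSO median and -100 = no signal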
# Ecoli rRNA inh RFP – second read-out of Ecoli rRNA inh, no call of its own (marks repeat the call); RFP signal change, %; measured here: RFP humanized mutant strains;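 first replicate; 0 = DMSO median and -100 = no signal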
# The depositor's hits bear a star; i = inactive; x = no result given; & = joins results of further samples; ! = not confirmed by another sample.
canonical_smiles	Beta cell apopt	Ecoli rRNA inh	Ecoli rRNA inh OD600	Ecoli rRNA inh RFP	FGF22 binding	UCH37 DUB inh	AF4-AF9 inh	T cruzi inh	A1 inh	E coli growth
COc1ccc(C(O)c2cc(OC)ccc2OP(=O)(N(C)C)N(C)C)cc1 (stereo unspecified)	-4	x	x	x	x	1.6	x	7	-0.4	0.68
COC(=O)C1=C(c2ccc(F)cc2OCc2ccccc2)C[C@@H]2CC[C@H]1N2C(=O)NCc1ccc(Cl)cc1	0	9	6	-3.6	i	2.8	1.3	x	0.9	x
COC(=O)C1=C(c2ccc(OC)c(OC)c2)C[C@@H]2CC[C@H]1N2C(=O)N1CCC(O)CC1	-6	19	11	-5.2	i	3.7	-3.7	x	-0.5	x
CCOC(=O)c1c(C)n(Cc2ccco2)c2ccc(OC)cc12	-7	x	x	x	x	17	x	22	0.3	0.71
COP(=O)(OC)C1(Nc2ccc(C)cc2)CCCCC1	0	x	x	x	x	-0.6	x	1	-0.1	0.72
CN1CCN(c2nc3ccccc3c(=O)n2-c2ccccc2)CC1	-6	6	2	-2.6	i	0.7	-4.1	16	-0.7	0.72
COc1ccc(C(C)=O)cc1CC(C(=O)c1ccccc1)N(C)C (stereo unspecified)	-4	x	x	x	x	5.0	x	8	0.7	0.69
CN1C(=O)NC(=O)/C(=C\C=C\c2ccccc2[N+](=O)[O-])C1=O	-12	17	9	1.9	i	3.1	-1.9	-12	-0.4	0.67
c1ccc2c3c(ccc2c1)OCC1CONC31 (stereo unspecified)	-5	1	0	-1.1	i	4.5	1.2	-4	-0.2	0.67
CC1=CC(C)C(COC(N)=O)(COC(N)=O)C(C)C1 (stereo unspecified)	5	x	x	x	x	17	x	-4	0.0	0.76
COc1cccc(C(=O)C2CCCN(C3CCOCC3)C2)c1 (stereo unspecified)	-1	19	9	0.6	i	-2.3	0.1	-9	0.7	0.66
Cc1ccccc1CN1CCN(Cc2ccccc2)CC1	0	22	14	2.3	i	1.0	-2.6	50	0.5	0.68
COC(=O)[C@@H](c1ccccc1)C1CCCCN1 (stereo partly specified)	x	6	10	-1.1	i	0.2	x	x	x	0.72
Cc1nn(-c2ccccc2)c2c1CC1(C(=O)N(C)C(=O)N(C)C1=O)C1CCCCN21 (stereo unspecified)	-1	x	x	x	x	1.2	x	-10	0.7	0.75
CCCC12CN3CC(CCC)(CN(C1)C3c1ccccn1)C2=O (stereo unspecified)	0	x	x	x	x	4.4	x	-13	0.2	0.68
COc1cc2c3c(c1OC)-c1cc(O)ccc1CC3NCC2 (stereo unspecified)	0	x	x	x	x	-1.5	x	-3	0.9	0.7
O=c1[nH]c(O)c(/C=C2\C=Nc3ccc(OCc4ccccc4)cc32)c(=O)[nH]1	-15	98	14	1.9	i	x	-5.4	-14	0.4	x
c1ccc2c(c1)CC1CNCc3cccc(c31)S2 (stereo unspecified)	-2	6	5	0.9	i	2.3	2.3	3	1.8	0.68
Cc1cc(C)c2c(c1)NP(=S)(c1ccccc1)N2 (stereo unspecified)	x	3	0	-0.9	i	1.1	-46	x	x	0.66
Cc1cc(/C=C2/C(=O)NC(=O)N(Cc3ccco3)C2=O)c(C)n1-c1ccc(C(=O)O)cc1	-2	13	2	1.4	i	4.8	1.8	-16	0.5	0.68
O=C(c1ccccc1[N+](=O)[O-])N1CCC2(CC1)OCCO2	x	-7	-2	-0.8	i	2.8	-8.9	-12	0.9	0.63
CNC(=S)N(C)CCc1cc2c(c(OC)c1/C=C1/C(=O)NC(=O)N(C)C1=O)OCO2	x	9	1	1.3	i	0.4	-3.6	0	0.4	0.64
CC(O)(CS(=O)(=O)c1ccc(F)cc1)C(=O)Nc1ccc(C#N)c(C(F)(F)F)c1 (stereo unspecified)	-1	x	x	x	x	3.6	x	-8	-0.3	0.65
CC(C)CC(N(C)C)C1(c2ccc(Cl)cc2)CCC1 (stereo unspecified)	x	9&-22	5&-32	0.2&3.6	i	2.9&1.8	x	x	x	0.52*!
Cc1ccn2nc(S(=O)(=O)Nc3c(F)cccc3F)nc2n1	x	x	x	x	x	0.1	x	-11	-0.5	0.65
CCCCn1c(=O)c(C(=O)Nc2cnccn2)c(O)c2ccccc21	2	x	x	x	x	-1.7	x	-1	-0.5	0.7
CC1CN1P(=O)(Oc1ccc2ccccc2c1)N1CC1C (stereo unspecified)	x	36	15	2.2	i	3.3	1.4	x	x	0.68
CN(C)Cc1ccccc1OC(=O)N(C)C	2	x	x	x	x	3.8	x	-33	1.4	0.75
O=C(CNC(=O)c1ccc(Br)cc1)Nc1ccc(Br)cc1C(=O)c1ccccc1	-1	-15	-10	-0.7	i	-2.6	-1.4	5	0.3	0.7
Cc1ccc(S(=O)(=O)N(C)CCCC(=O)N2CCN(c3ccccn3)CC2)cc1	-2	x	x	x	x	-0.1	x	13	-0.6	0.69
O=c1ccc2cc3ccoc3c(O)c2o1	x	-5	6	-4.3	i	-14	-4.3	x	x	0.66
CCOC(=O)CCCCCNC(=O)c1c(O)[nH]c(=O)[nH]c1=O	x	x	x	x	x	0.4	x	-13	-0.9	0.67
FC(F)(F)c1ccc(NC2=NCCCS2)cc1	x	4	1	-0.8	i	7.1	-1.4	32	-0.8	0.59
Cc1c(C(=O)c2cccc3ccccc23)c2cccc3c2n1[C@H](CN1CCOCC1)CO3	x	x	x	x	i	4.0	1.1	72*	-0.2	x
O=C(N[C@H]1CP(=O)(Oc2ccccc2)O[C@H](COCc2ccccc2)[C@H]1O)C(Cl)(Cl)Cl (stereo partly specified)	-2	-17	-10	19	i	x	-6.0	-3	0.7	x
N[C@@H](Cc1c[nH]c2ccccc12)c1nnc(SCc2ccccc2)o1	-2	x	x	x	x	2.7	x	-9	0.2	0.69
O=P(Oc1ccccc1)(Oc1ccccc1)C(Nc1ccccc1)c1ccccc1 (stereo unspecified)	13	x	x	x	x	0.6	x	13	0.6	0.73
CC(C)CC12CN3CCN(CC(C3)C1O)C2 (stereo unspecified)	-2	x	x	x	x	2.1	2.0	-24	0.7	0.67
COC(=O)C1=C(c2ccc(S(C)(=O)=O)cc2)C[C@@H]2CC[C@H]1N2C	-3	15	18	-10	i	2.9	-0.5	x	-0.1	x
COc1ccc(CCN(C)Cc2ccc(F)cc2F)cc1OC	-1	x	x	x	x	0.3	x	35	-0.2	0.64
CC(=O)Nc1ccccc1C(=O)OCC(=O)c1ccc2ccccc2c1	4	x	x	x	x	-12	x	-8	0.8	0.71
CC1CCN(c2cc(Br)c([N+](=O)[O-])cc2F)CC1	5	-4	-4	3.6	i	5.1	-47	-4	2.8	0.7
COC(=O)C1=C(c2ccc(C(C)=O)cc2)C[C@@H]2CC[C@H]1N2C(=O)NCCNC(C)=O	2	22	22	-8.6	i	-0.4	-5.3	x	-0.4	x
CCc1ccc(CN2CCN(Cc3ccc(SC)cc3)CC2)cc1	0	-13	-23	-2.7	i	x	22	70*	0.1	x
CC(C)(C)NCC(O)c1cc(Cl)c(N)c(Cl)c1 (stereo unspecified)	2	x	x	x	i	1.0	-0.7	18	-1.9	0.69
C[C@]12CCC3C(C1CCC2=O)[C@H](O)C[C@H]1C[C@@H](O)CC[C@]31C (stereo partly specified)	-2	x	x	x	i	1.6	2.8	x	-0.7	0.68
CN1CC(C#N)C2(O)c3ccccc3CCC2C1 (stereo unspecified)	-4	10	14	3.2	i	1.7	-1.5	10	0.2	0.63
Cc1ccc(Cc2c(C)nc3nc(SCC(=O)N4CCC5(CC4)OCCO5)nn3c2C)cc1	-2	x	x	x	x	0.9	x	11	1.0	0.69
CN1C(=O)C(Cc2ccc(OCc3ccccc3)cc2)C(=O)N(C)C1=O	-6	-1	-3	2.5	i	11	-1.8	-1	-2.8	0.67
CC(=Nc1ccc(F)cc1)c1c(O)n(C)c(=O)[nH]c1=O	5	11	6	3.9	i	2.7	-3.3	-16	0.6	0.67

# Other compounds:
canonical_smiles	Beta cell apopt	Ecoli rRNA inh	Ecoli rRNA inh OD600	Ecoli rRNA inh RFP	FGF22 binding	UCH37 DUB inh	AF4-AF9 inh	T cruzi inh	A1 inh	E coli growth
COc1ccc2c(c1OC)C(=O)O[C@@H]2[C@H]1c2cc3c(cc2CCN1C)OCO3	-2	3	9	2.8	i	-1.3	-2.1	x	0.3	x
OC(CN1CCOCC1)c1csc2ccccc12 (stereo unspecified)	-2	8	-1	-0.9	i	6.7	-2.4	-11	0.9	0.69
O=C(CCC(=O)N1C[C@H]2C[C@@H](C1)c1cccc(=O)n1C2)NCc1ccccc1C(F)(F)F	-4	3	5	0.5	i	-2.3	x	x	-0.1	0.69
CN1CCN(Cc2cc(=O)n3ccsc3n2)CC1	-2	5	10	0.2	i	-0.2	-1.8	17	1.0	0.74
CCN1CCN(Cc2ccc(C)cc2)CC1	-6	-2	11	-3.8	x	4.5	x	16	0.3	0.68
CN(C)C(=O)Oc1ccc(-c2nnco2)cc1	-3	11	22	0.2	i	1.0	-3.8	-7	-0.7	0.73
CCOC(=O)c1c(/N=C/c2c(O)n(-c3ccc(F)cc3)c(=S)[nH]c2=O)sc2c1CCCC2	-3	x	x	x	x	2.5	x	-6	0.5	0.66
CC1=C2[C@H]3OC(=O)[C@@H](C)[C@@H]3CC[C@@]2(C)C=CC1=O	2	x	x	x	i	2.9	0.2	x	0.2	0.76
CC(C)N(CC(O)c1cccc([N+](=O)[O-])c1)C(C)C (stereo unspecified)	-3	x	x	x	x	0.8	x	-32	0.2	0.69
CC(C)(C)NC(=S)/N=C(\N)N[N+](=O)[O-]	3	x	x	x	i	x	-2.4	-1	-0.2	x
O=C1NC(=O)C(Cc2cccs2)C(=O)N1	-2	x	x	x	x	4.1	x	-3	0.1	0.68
Cc1ccc2c(c1N)C(=O)c1ccccc1C2=O	4	2	1	5.2	i	x	x	x	-3.1	x
CCS(=O)(=O)N1CCCC(C(=O)N2CCC3(CC2)OCCO3)C1 (stereo unspecified)	1	x	x	x	x	1.6	x	-12	0.5	0.72
CCN(CC)C(=O)c1ccc(NC(=O)c2cccc(S(=O)(=O)N3CCN(C)CC3)c2)cc1	-3	5	-2	-1.9	i	1.2	-1.3	-11	0.0	0.69
O=c1[nH]c(=O)n(Cc2ccc(F)cc2)c(O)c1C=Nc1ccc(Cl)cc1	-5	8	7	1.7	x	-241	-1.3	-34	0.0	0.7
CCOC(=O)c1cnc(SCc2ccc(Cl)c(Cl)c2)nc1N1CC1	x	-7.9*	-28*	1.0*	i	3.1	-1.5	x	x	0.68
C=CCN(CC=C)Cc1c[nH]c2ccccc12	107*	14	14	5.3	i	0.4	5.1	-32	1.3	0.73

# An excerpt from above with just T cruzi inh, Beta cell apopt and FGF22 binding.
SMILES | T cruzi inh | Beta cell apopt | FGF22 binding
CN(C)C(=O)Oc1ccc(-c2nnco2)cc1 | -7 | -3 | i
CCOC(=O)c1c(/N=C/c2c(O)n(-c3ccc(F)cc3)c(=S)[nH]c2=O)sc2c1CCCC2 | -6 | -3 | x

# Screens: PubChem BioAssay, several laboratories

# This is a subset. The share of hits here may be higher or lower than overall.
